# Bioassay records: PubChem, several laboratories
# rRNA inh HTS: reduced GFP signal of wild-type E. coli, primary screen, bacterial rRNA inhibitor project, GFP/RFP fluorescence, OD600, single point | E. coli WT GFP vs humanized-ribosome RFP mutants, 24 h; active compounds read low; DMSO median 0, no signal -100 | GFP signal change (wild-type ribosome), % (test concentration not listed) | hit rate 1.6% among 350,000;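 active means significant combined selectivity score with lowered wild-type GFP, culture density cut under 30%, mutant RFP and density less affected; inactive means any of these conditions unmet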; further: one replicate is shown; some compounds called inactive have numbers as strong as hits
# AF4-AF9 inh: inhibitors of AF4 peptide binding to AF9, primary screen, biochemical, AlphaScreen, biotin-AF4 peptide, FLAG-AF9, single point; AID 651704, 2012; inhibition, % at 10 µM; Protein AF-9 (Homo sapiens), P42568; hit rate 0.47% among 350,000;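 active means every replicate reaching a set inhibition limit, whatever the replicate mean, cut at about 25% in these data; inconclusive means mean inhibition reaches that limit but some replicates miss it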;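 further: 0% = plate neutral control median and 100% = total signal loss; the record names both 10 and 1 µM as test concentration; the first replicate is given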
# HNF4A DNA FP: change in binding of human HNF4A to DNA, primary screen, biochemical, fluorescence polarization, FITC-DNA; Hepatocyte nuclear factor 4-alpha (Homo sapiens), P41235; 1 h; activity change, % at 10 µM; hit rate 0.3% among 360,000; AID 1224865, 2016; in the data active means activity change above about 30%, passing the limit was not always enough;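 further: controls were the assay level and a saturating level of protein; the project sought stronger binding though the title names inhibitors; some compounds called inactive have numbers as strong as hits; positive values seem to mean higher polarization but the record does not say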
# Target sequence (P41235 whole entry, looked up): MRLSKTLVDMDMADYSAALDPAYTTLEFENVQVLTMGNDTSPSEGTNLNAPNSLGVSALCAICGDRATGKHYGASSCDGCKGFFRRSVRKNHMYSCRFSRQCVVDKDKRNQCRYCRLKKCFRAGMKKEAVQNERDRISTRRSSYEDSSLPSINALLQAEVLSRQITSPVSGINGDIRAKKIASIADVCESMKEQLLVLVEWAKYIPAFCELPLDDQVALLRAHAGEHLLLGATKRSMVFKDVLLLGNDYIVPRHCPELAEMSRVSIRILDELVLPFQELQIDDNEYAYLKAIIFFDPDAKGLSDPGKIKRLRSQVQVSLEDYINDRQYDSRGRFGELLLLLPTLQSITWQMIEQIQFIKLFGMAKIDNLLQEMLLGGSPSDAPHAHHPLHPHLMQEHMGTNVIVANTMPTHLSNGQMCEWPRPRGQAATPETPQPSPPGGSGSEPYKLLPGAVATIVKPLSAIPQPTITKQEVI
# Ecoli growth: E. coli growth inhibition, primary screen, OD600; Escherichia coli growth, 23 h; active compounds read low; OD600 absorbance (no concentration beside the values); hit rate 0.21% among 330,000; AID 1053175, 2014;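 active means OD600 absorbance below the run mean of sample wells minus 3.6 SD, in any replicate, cut at about 0.56 in these data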;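 further: stock transfer was 300 nL into about 60 µL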
# ALR inh: inhibitors of human ALR sulfhydryl oxidase, primary screen, biochemical, H2O2 detection, HRP-luminol luminescence, single point. FAD-linked sulfhydryl oxidase ALR (Homo sapiens), P55789. purified ALR, DTT oxidation. inhibition, % (no concentration beside the values). hit rate 3.8% among 290,000. AID 485317, 2010;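 active means mean and each replicate at 75% or more; inconclusive means only one of the two met; inactive means neither met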;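 further: stock transfer was 7.5 nL into about 7.5 µL; 0% = neutral wells and 100% = wells with inactivated enzyme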
# Target sequence (P55789 whole entry, looked up): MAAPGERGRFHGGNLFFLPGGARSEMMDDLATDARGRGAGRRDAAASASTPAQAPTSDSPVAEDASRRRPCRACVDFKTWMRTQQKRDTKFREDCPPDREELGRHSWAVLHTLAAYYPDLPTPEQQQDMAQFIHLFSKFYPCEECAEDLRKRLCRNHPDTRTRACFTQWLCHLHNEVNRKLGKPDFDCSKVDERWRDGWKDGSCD
# Vif A3G: inhibitors of Vif binding to APOBEC3G peptide, primary screen, biochemical, TR-FRET, GST-Vif 1-94, biotin-A3G peptide, dose response retest (AID 1117319); Virion infectivity factor (Human immunodeficiency virus type 1 group M subtype B (isolate …; hit rate 0.57% among 260,000; inhibition, %; hits with a dose series show IC50 in µM; TR-FRET GST-Vif / biotin-A3G peptide binding; higher % means a stronger effect; test concentration not given here; strong numbers were not always called active;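 active means above the screen mean plus three standard deviations and confirmed in dose response; inconclusive means results disagree or hit not tested in dose response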;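 further: Vif residues 1-94 fused to GST binding biotinylated APOBEC3G peptide 110-148; 0% = full assay without inhibitor and 100% = GST in place of GST-Vif; retest series ran down from 100 µM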
# FGF22 binding: binders of human FGF22 protein, primary screen, FGF22 synaptogenesis inhibitor project, biophysical, thermal shift, single point; Fibroblast growth factor 22 (Homo sapiens), Q9HCT0; recombinant FGF22 thermal shift, SYPRO orange fluorescence; percent of sucrose octasulfate shift, DMSO zero; calls only at 9.99 µM; hit rate 1.5% among 340,000; AID 651658, 2012;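 active means melting point raised past a set limit in the mean and every replicate; inconclusive means no clear call; three in four hits are not shown here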
# Target sequence (Q9HCT0 whole entry, looked up): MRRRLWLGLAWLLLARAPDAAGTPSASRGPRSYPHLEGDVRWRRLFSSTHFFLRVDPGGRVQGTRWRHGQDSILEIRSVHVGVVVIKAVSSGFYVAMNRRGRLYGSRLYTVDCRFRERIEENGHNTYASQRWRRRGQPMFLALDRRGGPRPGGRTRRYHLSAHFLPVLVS
# rRNA inh HTS OD600: further read-out of rRNA inh HTS, marked with its call; OD600 change, %; measured here: OD600 growth;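 optical density of the mix in the first replicate; 0 = DMSO median and -100 = no signal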
# rRNA inh HTS RFP: further read-out of rRNA inh HTS, marked with its call; RFP signal change, %; measured here: RFP humanized mutant strains;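 first replicate; 0 = DMSO median and -100 = no signal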
# The depositor's hits bear a star; i = inactive; ? = inconclusive; . = not tested or not shown. Some of the compounds tested; the hit share may differ from the screen's.
SMILES,rRNA inh HTS,rRNA inh HTS OD600,rRNA inh HTS RFP,AF4-AF9 inh,HNF4A DNA FP,Ecoli growth,ALR inh,Vif A3G,FGF22 binding
O=C(NCCO)C(=O)NCC(c1ccc2c(c1)OCO2)N1CCN(c2ccc(F)cc2)CC1 (configuration not stated),0,-1,-0.8,4.6,-0.4,0.73,52,.,i
CC(=O)N1CCc2cc(S(=O)(=O)CCC(=O)NCc3ccc(C)o3)ccc21,24,1,3.5,-3.0,-2.1,0.68,12,.,i
CCn1c(C(O)c2ccccc2)nc2ccccc21 (configuration not stated),.,.,.,.,-0.9,0.68,2,17%,.
Cn1c(=O)cc(SCC(=O)NCc2ccc(F)cc2)c2ccccc21,14,8,2.3,-3.0,3.4,0.71,3,1%,i
CCOC(=O)C1CCN(C(=O)c2ccc(Cl)c(S(=O)(=O)N3CCCC3)c2)CC1,2,-1,-1.3,0.6,-0.9,0.72,-6,.,i
COC(=O)CSc1nc(-c2ccccc2)nc2ccc(F)cc12,.,.,.,.,1.5,0.75,18,-2%,.
CCOC(=O)C(NCc1ccco1)(NC(=O)c1ccccc1)C(F)(F)F (configuration not stated),.,.,.,.,-0.7,0.69,-19,-1%,.
COCCn1c(N)c(N(Cc2ccccc2)C(=O)C2=COCCO2)c(=O)[nH]c1=O,10,11,0.4,-2.0,1.7,0.72,2,.,i
CC(C)NC(=O)N(C)C[C@@H]1Oc2cc(C#CC(C)(C)O)ccc2S(=O)(=O)N([C@@H](C)CO)C[C@@H]1C,5,7,1.0,-1.2,.,.,.,.,i
O=C(c1ccc(F)cc1)n1ccc(-c2cnc(-c3ccccc3)s2)n1,.,.,.,.,-0.3,0.8,-18,1%,.
CCOc1ccc2nc(SCC(=O)N(CC(C)C)c3c(N)n(CC(C)C)c(=O)[nH]c3=O)[nH]c2c1,5,5,-3.3,0.6,0.5,0.66,.,.,i
CC(C)CNC(=O)COC(=O)c1ccccc1OCC(=O)Nc1ccc(Br)cc1,.,.,.,1.6,-1.8,0.71,5,-3%,i
O=C(Nc1ccccc1C(=O)NC(Cc1ccccc1)C(=O)NC1CCCCC1)c1ccccc1 (configuration not stated),.,.,.,.,-2.3,0.75,-1,-12%,.
COC(=O)[C@]12CCCCC=C1N(CCC1=CCCCC1)C(=O)[C@H](CC(=O)NCc1cccc3ccccc13)C2,18,11,2.7,-1.1,-0.2,.,.,.,i
O=C1NCCN1C(=O)c1ccccc1F,.,.,.,.,3.0,0.71,-3,13%,.
CN(C)C(=O)CCN1CCOCC1,.,.,.,.,-0.4,0.74,0,1%,.
CCC(=O)Nc1ccc2c(c1)C(=O)N(C)C[C@@H](OC)[C@H](C)CN(C(=O)COC)[C@H](C)CO2,2,12,-3.5,0.4,.,.,.,.,i
CCn1nc(NC(=O)c2ccncc2)c2cc3cccc(C)c3nc21,4,1,0.6,5.1,-3.3,0.73,-19,20%,i
COc1cc2c(cc1NC(=S)Nc1cccc(C)c1)oc1ccccc12,.,.,.,.,0.6,0.73,-36,25%,.
O=C(CN(C(=O)c1csnn1)c1ccccc1Cl)NC1CCCC1,13,12,4.3,3.7,2.5,0.71,-2,-2%,i
O=S(=O)(NC1=NCCC1)c1cccc(NC(=S)NCCc2ccccc2)c1,.,.,.,.,-1.6,0.64,-1,4%,.
CCCn1c(=O)c2ccccc2n2c(SC(C)C(N)=O)nnc12 (configuration not stated),5,-3,-0.3,-3.6,1.9,0.66,-8,.,i
O=C(CCC(=O)N1CCN(c2ccc(F)cc2)CC1)c1ccc(Cl)cc1,2,5,1.1,0.8,-0.2,0.62,-10,.,i
CCOCCCNC(=O)CN1C(=O)COc2ccc(S(=O)(=O)N3CCOCC3)cc21,12,6,-0.7,-9.4,-1.8,0.69,-4,2%,i
CN(Cc1ccccc1)C(=O)Nc1c(Cl)cccc1Cl,3,0,2.4,-1.9,-2.8,.,.,.,i
C/C=C/c1ccc2c(c1)O[C@H](CN(C)Cc1ccncc1)[C@H](C)CN([C@@H](C)CO)S2(=O)=O,-2,-12,1.9,1.2,.,.,.,.,i
C/C=C/c1ccc2c(c1)O[C@H](CN(C)S(=O)(=O)c1ccccc1OC)[C@H](C)CN([C@@H](C)CO)S2(=O)=O,8,12,-2.0,-2.3,.,.,.,.,i
COc1cc(C(=O)NC2CC(C)CC(C)(C)C2)cc(OC)c1OC (configuration not stated),0,9,-5.1,-4.2,3.5,.,.,3%,i
CCC(=O)N1CC2(CN(Cc3ccncc3)C2)c2c(n(C)c3cc(OC)ccc23)[C@H]1CO,-1,6,-3.4,4.0,.,.,.,.,i
CC/C=C\[C@H](O)[C@H](O)C1=C(C)C(=O)[C@]2(O1)C(=O)N[C@@](OC)(C(=O)c1ccccc1)C2O (some centres not stated),11,-5,4.6,-0.9,0.3,0.72,-37,?,i
COc1cc(NC(=O)CSc2nnnn2C2CCCC2)cc(OC)c1,4,10,-0.9,-0.8,4.5,.,.,-3%,i
CCn1c(SCc2nc3ccccc3c(=O)[nH]2)nnc1-c1ccncc1,.,.,.,.,0.4,0.71,23,4%,.
COc1ccc(S(=O)(=O)N2CCCCCC2)cc1NC(=O)CN1C(=O)NC(C)(c2ccccc2)C1=O (configuration not stated),-17,-22,3.0,1.1,2.8,0.7,2,-6%,i
CCN(CC)c1nc(N2CCN(CCO)CC2)nc2ccccc12,19,5,1.2,0.7,-1.9,0.67,.,.,i
CCOc1ccc2nc(C(C)O)[nH]c2c1 (configuration not stated),.,.,.,.,-3.3,0.72,-8,2%,.
Cn1c(COc2ccccc2)nnc1SCC(=O)Nc1ccc(N2CCOCC2)cc1,3,10,1.2,-2.1,-2.2,0.65,10,.,.
O=C(Nc1ccc(F)cc1F)c1cc2ccccc2oc1=O,9,10,-2.7,-2.5,-1.8,0.72,-3,-5%,i
COC(=O)c1ccc2nc(NC(=O)CCS(=O)(=O)c3ccccc3)sc2c1,7,14,0.9,-0.8,5.6,0.62,1,.,i
COc1cccc(Cn2cc(-c3cccc(C(F)(F)F)c3)nn2)c1,-21,-37,3.4,-6.0,-2.8,0.66,-3,.,i
Cc1cccc(OCC(=O)Nc2ccc3c(c2)nc(CCN2CCCCC2)n3C)c1,-2,0,-3.3,5.0,-0.1,0.72,1,.,i
COc1ccc(C(=O)Nc2ccc3nc(C)sc3c2)cc1OC,-20*,-5.7*,0.8*,-1.0,1.1,0.69,-5,-9%,i
COc1ccc(S(=O)(=O)Nc2nc3ccccc3nc2NCc2ccc3c(c2)OCO3)cc1,.,.,.,.,-3.6,0.76,-10,.,.
COc1ccc(C2C3=C(CC(C)(C)CC3=O)Nc3c2c(=O)[nH]c2nc(C)nn32)cc1 (configuration not stated),.,.,.,.,-2.6,0.72,6,?,.
CCOc1c2ccc(C(=O)NCc3ccc(OC)cc3)cc2nn1CCOC,13,5,0.7,0.5,1.0,0.65,6,12%,i
NS(=O)(=O)c1ccc(CCNC(=O)CN2CCN(Cc3cccc4ccccc34)CC2)cc1,2,2,-1.3,-1.0,2.6,0.7,-11,.,i
O=C(C[C@H]1C[C@H]2c3cc(NC(=O)C4CCC4)ccc3O[C@H]2[C@@H](CO)O1)NCc1cccc(F)c1,-1,3,-1.5,0.4,.,.,.,.,i
Cc1occc1C(=O)NNC(=S)Nc1ccccc1,4,0,-4.8,-3.9,3.0,0.66,38,5%,i
O=C(N[C@H]1CC[C@@H](CCNS(=O)(=O)c2ccc(F)cc2)O[C@@H]1CO)c1ccccn1,1,4,-2.5,-0.1,.,.,.,.,i
COc1cc(NC(=O)c2cc(C)nc3ccccc23)cc(OC)c1OC,5,10,0.6,-1.4,2.1,0.7,-16,-5%,i
COc1ccc(CNC(=O)c2ccc(N3CCC4(CC3)CC(c3ccc(Cl)cc3)=NO4)c([N+](=O)[O-])c2)cc1,-5,-4,0.5,3.2,-0.3,0.68,-2,.,i
CCOc1ccc(C2NC(=O)CCC2[N+](=O)[O-])cc1 (configuration not stated),7,9,0.5,-1.0,-2.6,0.62,0,5%,i
Cc1ccc(NCc2nnc(SCC(=O)O)n2Cc2ccccc2)cc1Cl,3,-7,0.6,-0.7,5.2,0.66,.,-1%,i
COC(=O)[C@]12CCCCC=C1N(CCC1=CCCCC1)C(=O)[C@H](CC(=O)NCc1ccc(OC)c(OC)c1)C2,-8,-17,6.5,-0.2,2.5,.,.,.,i
COc1ccccc1-c1ccc2c(c1)[C@H]1[C@H](CCN1C(=O)CN1CCOCC1)[C@H](CO)N2C,-1,-4,-1.5,1.1,.,.,.,.,i
COc1ccc(C2C(C(=O)N3CCOCC3)CCC(=O)N2c2cc(OC)c(OC)c(OC)c2)cc1 (configuration not stated),.,.,.,.,1.5,0.71,-5,10%,.
COc1ccc(CCNC(=O)c2cnc3n(c2=O)CCS3)cc1OC,.,.,.,.,5.3,0.7,-40,?,.
COc1ccc(C(=O)N2CCN=C2SCc2cccnc2)cc1OC,0,13,1.1,-2.1,0.0,0.74,100*,8%,i
O=C1/C(=C\c2cccnc2)CN(Cc2ccccc2)C/C1=C\c1cccnc1,.,.,.,.,.,0.7,96*,?,.
CCOC(=O)CCC(NC(=O)CCCCC(=O)NC(CCC(=O)OCC)C(=O)OCC)C(=O)OCC (configuration not stated),2,7,-3.8,-1.6,-3.8,0.63,-21,-2%,i
CCN1CCCC1CNC(=O)c1cc2c(OC)cccc2[nH]1 (configuration not stated),18,23,4.1,3.9,2.0,0.64,-44,-3%,i
CC(=O)c1cccc(NC(=O)c2cccc(N3C(=O)c4ccccc4C3=O)c2)c1,2,6,-1.1,-2.7,12,0.77,-1,-5%,i
Cn1cc(/C=C2/SC(=O)N(CC(=O)Nc3ccc4c(c3)OCO4)C2=O)c2ccccc21,.,.,.,.,7.8,0.71,0,3%,.
O=c1c(O)c(-c2ccc(O)cc2)oc2cc(O)cc(O)c12,.,.,.,-6.8,4.9,0.68,47,.,i

# Part of the list above in order of SMILES length, largest number first:
SMILES,rRNA inh HTS,rRNA inh HTS OD600,rRNA inh HTS RFP,AF4-AF9 inh,HNF4A DNA FP,Ecoli growth,ALR inh,Vif A3G,FGF22 binding
COc1ccc(CNC(=O)c2ccc(N3CCC4(CC3)CC(c3ccc(Cl)cc3)=NO4)c([N+](=O)[O-])c2)cc1,-5,-4,0.5,3.2,-0.3,0.68,-2,.,i
COc1ccc(S(=O)(=O)N2CCCCCC2)cc1NC(=O)CN1C(=O)NC(C)(c2ccccc2)C1=O (configuration not stated),-17,-22,3.0,1.1,2.8,0.7,2,-6%,i
CC(=O)c1cccc(NC(=O)c2cccc(N3C(=O)c4ccccc4C3=O)c2)c1,2,6,-1.1,-2.7,12,0.77,-1,-5%,i
Cn1c(=O)cc(SCC(=O)NCc2ccc(F)cc2)c2ccccc21,14,8,2.3,-3.0,3.4,0.71,3,1%,i
COc1ccc(C(=O)N2CCN=C2SCc2cccnc2)cc1OC,0,13,1.1,-2.1,0.0,0.74,100*,8%,i
COc1ccc(C(=O)Nc2ccc3nc(C)sc3c2)cc1OC,-20*,-5.7*,0.8*,-1.0,1.1,0.69,-5,-9%,i
